Screens as filed in PubChem.
TRPML1 agonist: agonists of human TRPML1 channel. AID 624414. hit rate 0.12% among 410,000. TRPML1-expressing cells, Ca2+ dye fluorescence, FDSS; host cell line not named in the record; reference of the full effect not given here. activation, % (concentration not given with the values); in the data active = activation above about 50%; inconclusive = about 30% to 50%; inactive = below about 30%; further: 0% is about no effect; the text of the record puts the active cut at 80%
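Calcium fluorescence on an FDSS kinetic reader gave the read-out. Tet-induced TRPML1-DL cells were plated overnight, dye-loaded (Ca8 with quencher, 45-90 min, room temperature, dark), then read 110 s after compound addition, and again 110 s after 4uM final 54-4 (EC80).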
PINK1 expr mod: PINK1 expression modulation; PINK1 immunofluorescence, high-content cytometry, 24 h; Potency, µM (series often up to 76.6 µM), inactives show top-dose activation (PINK1 increase), most hits filed as activators; hit rate 0.2% among 410,000; AID 624263; active = well fitted activation curve with a large enough effect; inconclusive = small, poorly fitted or top-dose-only effect; inactive = flat fitted curve, though single readings scatter; cell line not stated here;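 further: potency means the concentration at half of the fitted maximal effect; % of control where 0% means no effect; nearly all actives have a fitted effect of over 65% in size; a mitochondrial uncoupler was the plate control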
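A stable cell line was treated with compounds at 5 concentrations for 24 hours, with CCCP as control. PINK1 levels and mitochondrial localization were measured by immunofluorescence with mitochondrial, cell and nuclear markers after fixation, read by laser-scanning cytometry.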
Sfp PPTase inh: Sfp phosphopantetheinyl transferase inhibition. Q9F4F7. Biochemical Sfp PPTase activity, qHTS. Potency, µM, inactives show max response, negative = inhibition, most hits filed as inhibitors. hit rate 3.5% among 310,000. AID 1490; active means well fitted inhibition curve with a large enough effect; inconclusive means small, poorly fitted or top-dose-only effect, or another doubt; inactive means no such curve, though single readings can be large or run the other way;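 further: the enzyme is Sfp with the accession as filed and its product quenches rhodamine fluorescence; potency means the concentration at half of the fitted maximal effect; 0% = enzyme reaction without inhibitor and -100% = no enzyme wells; top concentration of the series not given in the record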
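Sfp 15 nM + cpd, 15 min RT; start w/ rhodamine-CoA 5 uM, BHQ-2-YbbR 12.5 uM (final); 50 mM Hepes pH 7.6, 10 mM MgCl2, 0.01% NP-40, 0.01% BSA; read 525/598 nm at 0 and 30 min.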
TRPV1 potentiator: human TRPV1 potentiation. Q8NER1. TRPV1-expressing cells, Fluo-8 calcium influx, capsaicin EC20 potentiation; host cell line not named in the record; control for the full effect not named in the record. potentiation, % at 8.33 µM. hit rate 0.02% among 320,000. AID 540277; active means potentiation above 80%; inconclusive means 30% to 80%; inactive means below 30%; further: 0% is about no effect
Target sequence (Q8NER1 whole entry, looked up): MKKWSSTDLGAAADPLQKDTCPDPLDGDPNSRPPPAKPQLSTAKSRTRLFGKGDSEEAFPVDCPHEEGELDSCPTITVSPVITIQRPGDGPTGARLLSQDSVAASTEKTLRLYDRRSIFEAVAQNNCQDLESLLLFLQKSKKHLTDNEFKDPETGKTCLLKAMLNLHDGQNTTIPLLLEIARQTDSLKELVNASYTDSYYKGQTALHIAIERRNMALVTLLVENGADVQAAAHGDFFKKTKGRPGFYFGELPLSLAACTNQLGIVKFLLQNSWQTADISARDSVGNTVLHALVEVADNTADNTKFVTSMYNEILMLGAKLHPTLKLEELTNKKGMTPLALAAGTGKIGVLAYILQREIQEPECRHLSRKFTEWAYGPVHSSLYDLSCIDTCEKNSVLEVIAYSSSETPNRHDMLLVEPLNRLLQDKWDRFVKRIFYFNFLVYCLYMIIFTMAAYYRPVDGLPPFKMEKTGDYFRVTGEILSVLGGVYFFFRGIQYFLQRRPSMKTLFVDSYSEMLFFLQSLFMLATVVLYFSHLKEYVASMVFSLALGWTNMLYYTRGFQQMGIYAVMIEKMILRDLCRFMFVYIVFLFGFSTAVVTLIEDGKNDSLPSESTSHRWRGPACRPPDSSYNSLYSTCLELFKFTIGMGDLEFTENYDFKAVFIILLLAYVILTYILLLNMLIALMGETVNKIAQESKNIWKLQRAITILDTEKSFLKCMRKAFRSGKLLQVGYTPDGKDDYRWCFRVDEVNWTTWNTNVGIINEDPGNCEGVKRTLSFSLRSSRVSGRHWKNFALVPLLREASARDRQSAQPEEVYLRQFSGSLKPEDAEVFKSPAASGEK
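Fluo-8 calcium influx in TRPV1-expressing cells, kinetic read (ex 480/em 520 nm). Compound added and read 3 min for agonist activity, followed by capsaicin at EC20 final and 2 min further read for enhancement.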
Menin-MLL FL inh: menin-MLL binding inhibition, fluorescein peptide; Fluorescence polarization, fluorescein-MLL peptide displacement from menin; FP activity change, % at 61.4 µM; 290,000 tested, under 10 active; inconclusive = falling polarisation curve, or a change in total fluorescence; inactive = total fluorescence flat and polarisation flat or rising; no compound was filed as active; the % refers to the polarisation; negative = inhibition;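 further: % of control where 0% means no effect; inhibitors lower the polarisation; unlabelled MLL peptide was the positive control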
ClpP mod: qHTS Assay for Activators of ClpP; hit rate 1.9% among 340,000; AID 651965, 2013; purified B. subtilis ClpP, FRET peptide cleavage, 20 min; Potency, µM (doses to about 57.5 µM), without a hit: at the top dose activity change, negative = active; active = well fitted falling curve with a large enough effect; inconclusive = small, poorly fitted or top-dose-only effect; inactive = no such curve, though single readings can be large or run the other way; further: potency means the concentration at half of the fitted maximal effect; the source files actives as falling curves though it sought activators and does not explain the sign; nearly all actives have a fitted effect of over 65% in size; many hits overshoot -100%
Target sequence (P80244 whole entry, looked up): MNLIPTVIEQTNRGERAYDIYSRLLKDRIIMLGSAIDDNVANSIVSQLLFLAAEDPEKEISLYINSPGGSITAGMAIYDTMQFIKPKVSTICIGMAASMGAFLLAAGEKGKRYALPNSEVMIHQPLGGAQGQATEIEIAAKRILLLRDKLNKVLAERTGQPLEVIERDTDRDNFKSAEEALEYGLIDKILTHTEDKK
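Purified B. subtilis ClpP, 10 microg/mL final in Tris/HCl pH8 with KCl, BSA, glycerol and Tween-20, cleaved an Abz/nitrotyrosine-quenched decapeptide. Fluorescence (ex 320, em 430) was read at 0 and 20 min at room temperature. Delta was normalized to 5.8 microM ADEP and DMSO/no-enzyme controls.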
TRPML1 inh: human mucolipin-1 channel inhibition; hit rate 0.02% among 390,000; TRPML1-inducible cells, Ca2+ dye fluorescence, FDSS; hits give low values; inhibition of EC80 agonist-evoked calcium signal; Q9GZU1; activity change, negative = inhibition, % (test concentration not listed); in the data active means activity change below about -50%; inconclusive means about -30% to -50%; inactive means above about -30%;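 further: stimulus is agonist 54-4 at its EC80 concentration; on the % scale 0 is the no-effect control and ±100 the full control effect; compound concentration not given in the record; the text of the record puts the active cut at -80%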
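Calcium fluorescence in TRPML1-DL cells induced overnight with Tet: a 110 s read after compound pin addition, then a 110 s antagonist read after challenge with 54-4 at 4 uM final (EC80).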
Active calls of the source: *; u = inconclusive; x = not tested or not shown; & = joins results of further samples; [ ] = dose if it differs, or a comment.

mol	TRPML1 agonist	PINK1 expr mod	Sfp PPTase inh	TRPV1 potentiator	Menin-MLL FL inh	ClpP mod	TRPML1 inh
COc1ccc(NC(=S)N2CCN(CCN=CC3=C(O)CC(c4ccccc4)CC3=O)CC2)cc1 (centres undefined)	-0.4	-0.4%	11%	0	1.0	-0.7%	-10
C=CCN(C(=O)CNC(=O)c1ccco1)C(C(=O)NC1CCCCC1)c1ccccc1 (centres undefined)	-0.2	-0.6%	13%	1	-1.5	1.7%	-19
O=C(NC1CCCCC1)c1cccc(N2C(=O)CCC2=O)c1	0.9	-1.4%	x	4	x	x	-5
Nc1ccc(C#Cc2c(-c3ccsc3)oc3ccc(N4CCOCC4)cc23)cc1	3.8	-1.1%	x	x	x	3.4%	12
Cc1ccc(C2(C)NC(=O)N(CC(=O)NCc3ccccc3Cl)C2=O)cc1 (centres undefined)	-0.4	-2.4%	11%	2	0.5	x	36
CC1(C(=O)NCC2CCOCC2)Cc2c(-c3cccc(C(F)(F)F)c3)ccnc2O1 (centres undefined)	-0.6	6.4%	x	x	x	-6.2%	x
Cn1nnc(NC(=O)c2cccc([N+](=O)[O-])c2)n1	0.5	-1.1%	6%	4	6.6	0.0%	-11
Cc1cc(C)n(CCCC(=O)O)n1	0.7	2.2%	3%	4	-3.2	x	-7

Continued:
mol	TRPML1 agonist	PINK1 expr mod	Sfp PPTase inh	TRPV1 potentiator	Menin-MLL FL inh	ClpP mod	TRPML1 inh
COC(=O)c1ccc(C(=O)OC)c(NC(=O)CN2CCN(c3ccccc3OC)CC2)c1	1.5	1.2%[38.3 µM]	-3%	-8	-1.3	-1.8%	7
Brc1ccc(OCCOCCOc2cccc3cccnc23)cc1	0.4	7.6%	x	x	x	-5.9%	8
Cc1ccc(Nc2c(C(C)C)c(C)c(C#N)c3nc4ccccc4n23)cc1	1.0	u	x	x	x	0.1%	13
Nc1cccc(CCc2nc3cc4ccccc4cc3[nH]2)c1	4.6	18%	3%	-17	1.2	1.6%	19
O=C(Cc1c(Cl)cccc1Cl)Nc1ccncc1Cl	0.3	1.3%	2%	5	x	1.2%	11
Cc1nn(CCCC(=O)NCc2ccccc2Cl)c(=O)c2nccn12	0.2	-0.5%	0%	-9	6.6	-0.9%	-5
COCCNC(=O)c1ccc(NS(=O)(=O)c2ccc3[nH]c(=O)[nH]c3c2)cc1	0.6	-1.3%	8%	-2	x	-0.6%	11
COC(=O)[C@]1(Cc2ccccc2)N[C@H](CN(C)S(=O)(=O)c2ccc(OC)cc2)[C@@H]2C(=O)N(C)C(=O)[C@@H]21	-0.7	0.0%	x	x	x	2.1%	-4

The list goes on:
mol	TRPML1 agonist	PINK1 expr mod	Sfp PPTase inh	TRPV1 potentiator	Menin-MLL FL inh	ClpP mod	TRPML1 inh
CC(C)(C)c1ccc(CC(=O)N2CCC2(C)C(=O)NCCC#N)cc1 (centres undefined)	-0.7	0.5%	x	x	x	1.6%	x
CC1=C(C(=O)OCC(Br)(Br)Br)C(c2ccc(Br)cc2)NC(=O)N1CCCC(=O)O (centres undefined)	x	x	12%	1	4.8	x	x
CC(=O)n1cc(N(C(=O)CCl)c2ccc(Cl)cc2)c2ccccc21	-0.4	-1.4%	8%	7	5.6	-5.8%	-7
CCNC(=O)NC(=O)CSc1cccc(C(F)(F)F)c1	1.7	u	6%	-17	-1.0	0.1%	-6
c1ccc(COc2ncnc3c2ncn3CCCN2CCN(c3ncccn3)CC2)cc1	0.0	3.5%	x	x	x	1.3%	19
CC(=O)Cc1nsc(Nc2ccc(F)cc2)n1	-0.2	3.5%	8%	3	-2.4	1.8%	2
CCc1nnc(SCC(=O)Nc2nccs2)n1CC	-0.1	-0.6%	11%	5	x	-1.1%	-8
CCN1CCN(c2ccc(NC(=O)COc3ccc([N+](=O)[O-])cc3)cc2)CC1	0.1	0.7%	16%	-4	x	-0.2%	-3

(further entries)
mol	TRPML1 agonist	PINK1 expr mod	Sfp PPTase inh	TRPV1 potentiator	Menin-MLL FL inh	ClpP mod	TRPML1 inh
CC(C)(C)c1nnc(NC(=O)C2CCN(c3ncccn3)CC2)s1	1.2	3.3%[38.3 µM]	12%	-5	-0.1	-7.2%	7
CC(=O)Nc1cc2c(nc1C)nc(C)n2Cc1ccc(Br)cc1	0.4	-1.6%	-2%	5	0.9	-1.4%	2
COc1ccc2cc(Br)ccc2c1CC(=O)N1CCCC1	0.7	1.3%	6%	-13	-3.2	9.7%	-14
CC(C)Cn1c(SCC(=O)NC(=O)Nc2ccc3c(c2)OCCO3)nc2ccccc2c1=O	0.3	8.5%[38.3 µM]	-15%	-16	-3.8	0.5%	47
C=CCn1c(SCC(=O)NC23CC4CC(CC(C4)C2)C3)nc2cc(C(=O)O)ccc2c1=O	-0.7	1.1%	7%	27	2.4	0.8%	-6
CCc1sc(NC(=O)COC)nc1-c1ccccc1	1.9	-0.4%	-6%	-20	0.1	-3.8%	-3
CSc1ccc(C2c3[nH]c4ccccc4c3CCN2C(=O)c2cc(C)n(C)n2)cc1 (centres undefined)	x	x	3%	2	-0.7	x	x
COc1ccc(C=C2NC(=O)NC2=O)cc1O	0.1	-1.1%	x	x	x	-5.9%	7

The results go on:
mol	TRPML1 agonist	PINK1 expr mod	Sfp PPTase inh	TRPV1 potentiator	Menin-MLL FL inh	ClpP mod	TRPML1 inh
O=C(Nc1nccs1)c1ccccc1[N+](=O)[O-]	-0.5	-2.1%	20%	-15	1.8	-1.3%	9
CCc1ccc(N=Nc2ccc(O)c3[nH]cnc23)cc1	20	5.5%	x	11	x	-1.6%	10
COCCn1nnnc1C(c1ccccn1)N1CCN(c2cc(C)ccc2C)CC1 (centres undefined)	4.9	2.6%[38.3 µM]	-20%	-12	5.2	-2.3%	-6
CCOc1ccc(OCC)c(NC(=O)C2CCCN(S(=O)(=O)c3cnc[nH]3)C2)c1 (centres undefined)	-0.7	1.4%	-10%	5	-6.8	0.4%	2
COC(=O)Cn1cc(/C=N/NC(=O)COc2cccc3cccnc23)c2ccccc21	1.3	6.3%	u	-1	7.0	-0.9%	-18
O=C(C1CCN(S(=O)(=O)c2ccccc2)CC1)N(CCc1ccccc1)Cc1ccco1	0.2	-0.7%	-5%	6	3.5	0.5%	2
O=C1CCC(=O)N1CCOP1(=O)COc2ccccc2OC1	-0.4	0.5%	-2%	-15	-0.5	-1.3%	-8
Cc1cc(NC(=O)Cc2cccs2)no1	0.4	4.3%	-19%	-7	11	-0.6%&-2.3%	-10

Going on with the list.
mol	TRPML1 agonist	PINK1 expr mod	Sfp PPTase inh	TRPV1 potentiator	Menin-MLL FL inh	ClpP mod	TRPML1 inh
O=C(Nc1cccc([N+](=O)[O-])c1)c1ccn[nH]1	-0.3	-0.2%	10%	1	-4.3	x	-10
CCCCC(CC)CNC(=O)CN1C(=O)NC2(CCc3ccccc32)C1=O (centres undefined)	-0.6	2.6%	-9%	13	2.5	0.0%	-15
CC(Oc1ccc2c3c(c(=O)oc2c1)CCC3)C(=O)NCCCn1ccnc1 (centres undefined)	-0.5	-0.8%	5%	-20	x	4.0%	4
COc1ccc(NC(=O)CCn2c(=S)[nH]c3ccccc3c2=O)cc1Cl	-1.0	6.5%	x	x	x	1.6%	8
COc1cc(C(=O)NCCNC(=O)c2cnccn2)cc(OC)c1OC	0.2	0.9%	17%	4	2.5	x	7
CC(C)c1ccc(N2C(=O)CC(Sc3nc4ccccc4o3)C2=O)cc1 (centres undefined)	-0.5	1.6%	u	x	12	-1.1%	0
Cc1ccc(Cl)cc1N1C(=O)CC(Sc2ccccc2N)C1=O (centres undefined)	0.1	1.4%	x	x	x	1.3%	-10
CCOc1ccc(S(=O)(=O)N2CCC(c3ccncc3)CC2)cc1	-0.8	-1.5%	x	x	x	-2.0%	5

(listing goes on)
mol	TRPML1 agonist	PINK1 expr mod	Sfp PPTase inh	TRPV1 potentiator	Menin-MLL FL inh	ClpP mod	TRPML1 inh
COc1cccc(CNC(=O)Cc2ccc(NC(=O)N3CCCCc4ccccc43)cc2)c1OC	1.9	-1.1%	x	x	x	-1.8%	-1
O=c1cc(-c2ccccc2Cl)oc2c(NS(=O)(=O)c3ccccc3OC(F)(F)F)ccc(O)c12	1.4	u	8%	-4	0.7	2.3%	-6
COc1cccc(CC(=O)Nc2nccs2)c1	1.4	-11%[38.3 µM]	11%	15	2.7	-3.0%	23
Cc1ccc(OCC(=O)Nc2sc3c(c2C#N)CCC3)cc1	2.0	5.8%[38.3 µM]	-1%	13	4.1	-1.6%	-11
CCOC(=O)C1CCCN(C(=O)Cn2nc(CC)n3c(cc4occc43)c2=O)C1 (centres undefined)	-0.9	0.1%	x	x	x	-5.0%	-9
COc1ccc(Cl)cc1N(C(C)C(=O)NC1CCCC1)S(C)(=O)=O (centres undefined)	0.1	2.2%	6%	6	0.1	x	-1
CC(=O)Nc1ccc(NC(=O)CN(c2ccc(C(C)C)cc2)S(=O)(=O)c2ccccc2)cc1	1.7	0.8%	-1%	8	1.2	1.2%	0
COc1cccc(/C=N/NC(=O)c2ccc(-c3ccccc3)cc2)c1O	-0.2	0.1%	10%	-6	8.2	-2.0%	2

(cont.)
mol	TRPML1 agonist	PINK1 expr mod	Sfp PPTase inh	TRPV1 potentiator	Menin-MLL FL inh	ClpP mod	TRPML1 inh
CCCCN1CC[C@H]2C=CC[C@@H](C(=O)NCc3ccc(OC)cc3)[C@H]2C1=O	-0.9&-0.5	1.7%	x	x	x	2.0%&2.3%	7
Cc1cc(C(=O)NCc2ccco2)no1	-0.3	2.6%[38.3 µM]	13%	9	5.1	-0.5%	13
C/[N+]([O-])=C\C1C(=O)CCCC1=O	0.9	1.0%	21%	12	0.3	x	7
CCS(=O)(=O)N1CCC(C(=O)Nc2cccc(C(C)=O)c2)CC1	0.5	0.9%	4%	u	0.6	u	5
COC(=O)C1C(C(C)C)N(c2ccccc2)OC1(C)O (centres undefined)	-0.2	1.0%[38.3 µM]	-1%	-3	-0.5	0.6%	2
CC1=C(C)CC(C(=O)NNC(=O)c2ccccc2O)C(C(=O)O)C1 (centres undefined)	-0.8	0.7%	6%	-22	0.5	-24%	1
Cn1c(NN)nc2c1c(=O)n(Cc1ccccc1)c(=O)n2C	x	1.6%	u	0	2.3	0.1%	x
